TRPV1 potentiator: potentiators of human vanilloid receptor 1 (TRPV1). TRPV1-expressing cells, Fluo-8 calcium influx, capsaicin EC20 potentiation; host cell line not named in the record; control for the full effect not named in the record. potentiation, % at 8.33 µM. 320,000 tested, 0.02% active. AID 540277; active means potentiation above 80%; inconclusive means 30% to 80%; inactive means below 30%; note: 0% is about no effect
Target sequence (Q8NER1 whole entry, looked up): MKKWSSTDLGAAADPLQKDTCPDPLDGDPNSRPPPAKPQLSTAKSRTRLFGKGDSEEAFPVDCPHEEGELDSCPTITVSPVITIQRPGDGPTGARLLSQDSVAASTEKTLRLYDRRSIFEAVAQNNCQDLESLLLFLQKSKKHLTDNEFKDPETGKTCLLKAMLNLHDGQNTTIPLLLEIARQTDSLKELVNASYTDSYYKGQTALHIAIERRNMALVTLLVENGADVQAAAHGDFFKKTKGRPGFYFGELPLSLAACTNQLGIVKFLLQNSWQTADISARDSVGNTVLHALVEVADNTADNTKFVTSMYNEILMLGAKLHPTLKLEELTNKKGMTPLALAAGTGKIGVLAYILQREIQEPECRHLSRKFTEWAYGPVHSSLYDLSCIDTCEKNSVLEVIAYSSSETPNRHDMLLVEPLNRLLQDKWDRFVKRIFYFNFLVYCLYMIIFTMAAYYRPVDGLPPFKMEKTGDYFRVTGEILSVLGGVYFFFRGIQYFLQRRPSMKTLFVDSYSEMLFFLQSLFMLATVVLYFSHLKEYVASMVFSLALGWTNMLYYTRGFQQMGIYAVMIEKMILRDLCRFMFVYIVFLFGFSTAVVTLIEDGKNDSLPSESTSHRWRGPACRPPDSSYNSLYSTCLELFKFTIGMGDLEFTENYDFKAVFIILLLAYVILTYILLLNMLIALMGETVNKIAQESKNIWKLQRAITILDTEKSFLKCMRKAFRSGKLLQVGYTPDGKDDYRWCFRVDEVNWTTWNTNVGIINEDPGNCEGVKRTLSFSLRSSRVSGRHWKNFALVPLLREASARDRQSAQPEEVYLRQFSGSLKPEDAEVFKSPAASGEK
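Cells expressing TRPV1 were dye-loaded with Fluo-8 and read kinetically: 10 s baseline, 3 min after compound (agonist portion), then 2 min after EC20 capsaicin (allosteric enhancer portion). Calcium-bound dye fluorescence at 480/520 nm.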
D2 potentiator: human D2 receptor positive allosteric modulation | potentiation, % (concentration not given with the values) | P14416 | 360,000 tested, 0.23% active | AID 624464 | DiscoveRx D2 beta-arrestin cells, luminescence, 90 min; 100% = 57 uM dopamine signal; active = potentiation of 50% or more; inconclusive = 30% to 50%; inactive = 30% or less;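 note: compound concentration not given in the record; tested on top of an EC20 dose of dopamine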
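D2 cells co-treated with compound plus 50 nM dopamine (EC20) for 90 min at 37 deg C to detect potentiation. Beta-arrestin recruitment was read as enzyme-fragment luminescence after 1 h at ambient temperature. Full response was set by 57 uM dopamine.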
Six1-Eya2 inh: inhibitors of human Six1/Eya2 interaction | Q15475+O00167 | AlphaScreen GST-Six1/His-Eya2 binding, biochemical; active compounds read low; control for the full effect not named in the record | activity change, % (concentration not given with the values) | 360,000 tested, 0.56% active | AID 651725; in the data active = activity change below about -65%; inconclusive = about -30% to -65%; inactive = above about -30%; note: % is set by controls: 0 for no effect and ±100 for the full control effect
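Compounds are tested against tagged Six1 and Eya2 proteins bridged by glutathione donor and nickel acceptor beads; after a one-hour incubation at 37 °C without light, AlphaScreen emission is recorded.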
CtBP-E1A inh: CtBP/E1A binding inhibition; 340,000 tested, 0.49% active; AlphaScreen GST-E1A/His-CtBP binding, 1536-well; active compounds read low; control for the full effect not named in the record; activity change, % (concentration not given with the values); in the data active means activity change below about -65%; inconclusive means about -30% to -65%; inactive means above about -30%; note: % is set by controls: 0 for no effect and ±100 for the full control effect
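Protein mix (5X: 125 nM each GST-E1A, His-CtBP) was incubated with pinned compound 2 h at 37 deg C in dark, in 50 mM Tris pH 8.0 buffer with 300 mM NaCl. Glutathione donor and nickel acceptor beads followed; AlphaScreen signal read after 1 h.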
PINK1 expr mod: modulators of PINK1 expression; PINK1 immunofluorescence, high-content cytometry, 24 h; Potency, µM (top dose mostly 76.6 µM), without a hit: at the highest dose activation (PINK1 increase), most hits filed as activators; 410,000 tested, 0.2% active; AID 624263; active = well fitted activation curve with a large enough effect; inconclusive = small, poorly fitted or top-dose-only effect; inactive = flat fitted curve, though single readings scatter; cell line not stated here;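 note: potency is the fitted concentration of half-maximal effect; % of control where 0% means no effect; nearly all actives have a fitted effect of over 65% in size; a mitochondrial uncoupler was the plate control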
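Compound titrations (5 concentrations, 24 h) on a stable cell line; DMSO and CCCP controls. Endpoint: fixed-cell PINK1 immunofluorescence with mitochondrial, cell and nuclear markers, scanned by microplate cytometer.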
D2 agonist: agonists of human D2 dopamine receptor (beta-arrestin); P14416; DiscoveRx PathHunter D2 beta-arrestin, luminescence, 90 min; 100% = 57 uM dopamine signal; activation, % (concentration not given with the values); 360,000 tested, 0.084% active; AID 624465; in the data active = activation above about 40%; inconclusive = about 15% to 40%; inactive = below about 15%; note: compound concentration not given in the record; the text of the record calls up to 30% inactive
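Agonist mode: compounds alone added to overnight-plated D2 PathHunter cells for 90 min at 37 C, with 57 uM final dopamine (EC100) defining full response. Beta-arrestin recruitment detected by chemiluminescent reagent, read after 1 h at ambient temperature.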
Sfp inh: blocks B. subtilis Sfp PPTase activity; Biochemical Sfp PPTase activity, qHTS; AID 1490; Potency, µM, inactives show max response, negative = inhibition, usual class: inhibitors; 310,000 tested, 3.5% active; active = well fitted inhibition curve with a large enough effect; inconclusive = small, poorly fitted or top-dose-only effect, or another doubt; inactive = no such curve, though single readings can be large or run the other way;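 note: the enzyme is Sfp with the accession as filed and its product quenches rhodamine fluorescence; potency is the fitted concentration of half-maximal effect; 0% = enzyme reaction without inhibitor and -100% = no enzyme wells; top concentration of the series not given in the record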
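After 15 min at room temperature with compound, 15 nM Sfp received 5 uM rhodamine-CoA plus 12.5 uM BHQ-2-ybbR (50 mM Hepes pH 7.6, 10 mM MgCl2). Rate came from the fluorescence difference over 30 min, ex 525/em 598 nm.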
An asterisk follows results filed as active; ? = inconclusive; . = no result given; [ ] = another dose, or the depositor's remark.

SMILES	TRPV1 potentiator	D2 potentiator	Six1-Eya2 inh	CtBP-E1A inh	PINK1 expr mod	D2 agonist	Sfp inh
Cc1nc(SCCOc2ccc(F)cc2)c2ccccc2n1	9	0	9	7	5.7%	-2.4	-9%
Cc1nc2c(C)cccc2c2c1COC2	29	-3	2	8	0.7%	-0.3	-2%
CCC(=O)c1cn(CC(=O)NCC2CCCO2)c2ccccc12 (stereo not given)	6	-10	2	-7	-2.6%	-0.1	13%
CC(=O)Nc1ccc(S(=O)(=O)NCC(=O)NCCCc2ccccc2)cc1	26	0	-2	-1	2.8%	0.0	14%
CCOc1ccccc1NC(=O)C1CCN(S(=O)(=O)c2c(C)nn(C)c2C)CC1	4	0	-16	-11	1.0%	-1.4	-12%
COc1ccc2nc(SCCC(=O)O)cc(C)c2c1	17	-4	6	1	-2.2%	-1.5	4%
CCOc1ccccc1NC(=O)CCS(=O)(=O)c1ccc2c(c1)CC(C)N2C(C)=O (stereo not given)	-7	-6	1	.	0.9%	1.3	-19%
CC12CCC(=O)N1C(C(=O)Nc1nnc(SCc3ccc(F)cc3)s1)CS2 (stereo not given)	21	-10	-10	-4	1.4%	-2.3	13%
Cc1ccc(S(=O)(=O)/N=C2\C=C(Nc3cccc(C(=O)O)c3)C(=O)c3ccccc32)c(C)c1	18	10	?	-82*	-1.7%	-8.3	-19%
N#Cc1c2c(c(NCCN3CCOCC3)n3c1nc1ccccc13)CCCC2	8	2	-2	-1	-1.5%	0.5	5%
COc1ccc(-c2cc(C#N)nc(Cl)n2)cc1	-8	-4	-13	-4	1.2%	-1.8	-10%
COc1ccccc1NC(=S)N(CCc1c(C)[nH]c2ccccc12)Cc1cccs1	11	-5	-18	?	2.7%	-2.6	17%
Nc1cc(C(=O)OCC(=O)NCCCc2ccccc2)ccc1Cl	-22	-4	-21	-7	0.9%	0.0	2%
CCOC(=O)c1cnc(-c2ccccc2)nc1-c1ccccc1	-15	-3	48	54	27%	-2.8	-19%
COc1ccc(OCCCC(=O)Nc2cccc([N+](=O)[O-])c2C)cc1	4	-32	-10	-5	1.7%	-3.7	-11%
O=C(C1CCC1)N1CCc2cc(S(=O)(=O)N3CCN(c4ccccn4)CC3)ccc21	-1	-2	-6	-4	0.2%	-1.0	6%
Cc1csc2ncc(C(=O)N(Cc3ccccc3)c3ccccn3)c(=O)n12	13	0	7	0	0.2%	0.0	9%
CC(=O)Nc1ccc(S(=O)(=O)NC(C)C(=O)OCC(=O)Nc2ccc(F)cc2Cl)cc1 (stereo not given)	.	-1	0	2	1.2%	-0.8	.
N#Cc1cc(-c2ccccc2)cnc1Sc1ccc(Cl)cc1	16	0	10	8	3.2%	-0.1	4%
CCC(=O)Oc1ccc2c(=O)c(-c3ccc4ccccc4n3)c(CC)oc2c1C	-1	2	13	4	-0.4%	0.2	-4%

Rewritten with two lines to a compound: part of the list above
Value order – TRPV1 potentiator	D2 potentiator	Six1-Eya2 inh	CtBP-E1A inh	PINK1 expr mod	D2 agonist	Sfp inh
- CCOc1ccccc1NC(=O)C1CCN(S(=O)(=O)c2c(C)nn(C)c2C)CC1
 : 4	0	-16	-11	1.0%	-1.4	-12%
- COc1ccc2nc(SCCC(=O)O)cc(C)c2c1
 : 17	-4	6	1	-2.2%	-1.5	4%
- CCOc1ccccc1NC(=O)CCS(=O)(=O)c1ccc2c(c1)CC(C)N2C(C)=O (stereo not given)
 : -7	-6	1	.	0.9%	1.3	-19%
- CC12CCC(=O)N1C(C(=O)Nc1nnc(SCc3ccc(F)cc3)s1)CS2 (stereo not given)
 : 21	-10	-10	-4	1.4%	-2.3	13%

Later entries.
SMILES	TRPV1 potentiator	D2 potentiator	Six1-Eya2 inh	CtBP-E1A inh	PINK1 expr mod	D2 agonist	Sfp inh
O=C(NCCc1ccccc1)c1ccccc1NC(=O)C1CC=CCC1C(=O)O (stereo not given)	25	-7	12	3	0.7%	-0.7	18%
COc1ccc2[nH]c(=O)c(CN(Cc3ccco3)C(=O)c3ccccc3)cc2c1	0	-28	-1	24	-1.1%	-4.5	-2%
CSc1ncccc1C(=O)OCC(=O)N(C)c1c(N)n(Cc2ccccc2)c(=O)[nH]c1=O	1	-13	-1	10	4.9%	-5.4	.
CCC(C)C1C(C#N)=C(N)Oc2n[nH]c(-c3ccccc3)c21 (stereo not given)	15	7	-8	2	1.4%	1.8	17%
COc1cc(C(=O)NCC(=O)n2nc(C)cc2C)cc(OC)c1OC	5	7	0	2	-2.0%	-2.9	13%
Cn1c(SCC(=O)N2CCCCC2)nc2c(c1=O)SCC2	2	0	1	0	1.1%	-2.8	16%
CCOc1ccc(N=Cc2c(O)cc(C)oc2=O)cc1	0	8	8	-4	2.5%	-3.4	17%
COC(=O)C1=NN(C(=O)c2ccc(Cl)cc2)C(O)(c2ccccc2)C1 (stereo not given)	4	-12	-7	-4	1.1%[38.3 µM]	-0.9	3%
COC(=O)c1ccc(COC(=O)c2ccccc2OC)cc1	-2	-2	4	.	3.7%	-3.6	-10%
COc1cccc(C(=O)O/N=C(\N)c2ccncc2)c1	-13	59*	3	11	1.2%[38.3 µM]	9.5	1%
O=S(=O)(Nc1cccc(-c2nnco2)c1)c1ccc(Cl)cc1	4	-17	3	.	2.3%	-6.4	2%
CCCN(Cc1cc2cccc(C)c2[nH]c1=O)C(=O)c1cccc(OC)c1	.	-2	6	-2	-2.4%	-2.6	.
Cc1ccc(C)c(S(=O)(=O)N2CCCOC2CNC(=O)C(=O)NCCc2ccco2)c1 (stereo not given)	0	-6	-14	4	2.9%	0.3	10%
CS(=O)(=O)N1CCN(C(=O)NC23CC4CC(CC(C4)C2)C3)CC1	0	-13	7	8	2.1%[38.3 µM]	0.2	15%
CN(CC(=O)NCCc1ccc(S(N)(=O)=O)cc1)CC(=O)Nc1ccc(Cl)cc1	.	-7	5	-2	-4.5%	-4.8	.
CCOc1ccc2nc(Cl)c(CN(C(C)=O)C3CCCCC3)cc2c1	17	-4	-4	0	3.2%	-5.1	16%
COc1cccc(-c2nnc(SCCOc3ccc4c(C)cc(=O)oc4c3)o2)c1	27	-23	2	-4	6.5%	-2.4	16%
Cc1ccc(Cn2nnc3c(=O)[nH]c(C4CCN(S(=O)(=O)c5ccc(S(=O)(=O)NC6CC6)cc5)CC4)nc32)cc1	-6	-12	-15	-17	4.4%	-2.9	10%
CCn1nc(C)c(Oc2ccccc2O)c1C	-7	16	8	7	3.8%	-0.5	18%
Cc1ccc2c(c1)cc(C(=O)N1CCN(c3ccccn3)CC1)n2C	-3	-15	12	3	5.9%	5.8	26%

Single records (already shown).
Results for Nc1cc(C(=O)OCC(=O)NCCCc2ccccc2)ccc1Cl : TRPV1 potentiator = -22; D2 potentiator = -4; Six1-Eya2 inh = -21; CtBP-E1A inh = -7; PINK1 expr mod = 0.9%; D2 agonist = 0.0; Sfp inh = 2%
Results for O=S(=O)(Nc1cccc(-c2nnco2)c1)c1ccc(Cl)cc1 : TRPV1 potentiator = 4; D2 potentiator = -17; Six1-Eya2 inh = 3; CtBP-E1A inh = .; PINK1 expr mod = 2.3%; D2 agonist = -6.4; Sfp inh = 2%
Results for COc1ccc(-c2cc(C#N)nc(Cl)n2)cc1 : TRPV1 potentiator = -8; D2 potentiator = -4; Six1-Eya2 inh = -13; CtBP-E1A inh = -4; PINK1 expr mod = 1.2%; D2 agonist = -1.8; Sfp inh = -10%

(further entries)
SMILES	TRPV1 potentiator	D2 potentiator	Six1-Eya2 inh	CtBP-E1A inh	PINK1 expr mod	D2 agonist	Sfp inh
Nc1nc(SCC(=O)Nc2ccccc2Oc2ccccc2)n[nH]1	10	7	9	-10	2.1%	-2.9	4%
O=C(Cc1ccccc1)NC(=S)Nc1ccc(OC(F)F)cc1	?	-2	9	4	0.0%	-1.3	15%
COCCCNC(=O)C1CCCN(S(C)(=O)=O)C1 (stereo not given)	?	-13	8	13	0.8%	-4.8	-26%
CCOC(=O)C1(Cc2ccc(OC)cc2)CCN(C(=O)c2csc(C)n2)CC1	-6	-2	9	3	2.0%	3.0	12%
CCOc1ccc(OCC)c(NC(=O)C2CCCN(S(=O)(=O)c3c(C)noc3C)C2)c1 (stereo not given)	2	5	1	3	6.0%	-2.7	14%
O=C(O)COc1ccccc1/C=C1\SC(=Nc2ccc(F)cc2)N(c2ccc(F)cc2)C1=O	-4	1	-9	6	1.2%	-16	?
COCCNC(=O)CSc1ncnc2sccc12	28	18	6	6	-0.6%	-2.4	6%
CCN(CC(=O)Nc1ccc(Cl)c(S(=O)(=O)N(C)C)c1)CC(=O)NC(C)C	1	-6	-2	1	-0.3%	0.5	9%
CCc1cc(SC#N)cc(C)c1N	0	-44	?	.	3.2%	-21	1%
O=C(O)c1cccc(S(=O)(=O)N2CC=C(c3ccccc3)CC2)c1	0	1	2	5	2.8%	1.1	.
O=[N+]([O-])c1ccc(N/N=C2/CCCCC2c2ccccn2)c([N+](=O)[O-])c1 (stereo not given)	11	-1	-5	.	0.8%	-1.0	35µM*
CCN(c1ccccc1)S(=O)(=O)c1cccc(C(=O)NCc2ccccn2)c1	-13	-12	-8	-10	0.4%	-1.2	.
Cc1c(C(=O)NC(C)c2ccccc2)c(-c2ccccc2)nn1-c1ccccc1 (stereo not given)	-4	-7	6	5	6.8%	-0.7	1%
CCOc1ccccc1C(=O)NCC(=O)NC(C)c1ccc(-n2ccnc2)cc1 (stereo not given)	1	-11	1	0	0.0%	-1.5	.
Cc1ccc(C)c(NC(=O)CN(C)C(=O)C2=NNC(=O)CC2)c1	.	-3	1	4	0.7%	5.2	.
CC1(C)CN(C2CCCCC2)C(=O)[C@H]1CC(=O)Nc1ccc(Br)cc1	.	-2	-3	5	-0.3%	-1.6	.
CCN(CC(=O)Nc1ccccc1OC)C(=O)c1cc(S(=O)(=O)N2CCCCCC2)ccc1OC	-6	-7	0	4	-0.7%	-3.5	.
CCOC(=O)c1sc(N/N=C/c2ccc(N(C)C)cc2)nc1C	-1	1	9	3	-0.4%	-0.5	10%
C=CCNC(=S)N/N=C/c1cn(C)c2ccccc12	?	-3	-21	-8	2.3%	1.5	-5%
Cc1ccc(OC(=O)CCC(=O)Oc2ccc(C)cc2C)c(C)c1	.	-4	25	101	-0.2%	-1.2	.
CC(O)(c1cccc(F)c1)c1nc(-c2csc3ccccc23)cs1 (stereo not given)	.	-8	1	8	1.3%	-3.6	.
